Compound activity from PubChem.
HSD17B inhib = HSD17B dehydrogenase inhibition | recombinant HSD17B10, NADH fluorescence kinetic; many of its hits are not listed in these tables | Q99714 | 75,000 tested, 7.6% active | Potency, µM (top dose mostly 57.1 µM), for the others: at the highest dose activity change, negative = inhibition, hits mostly inhibitors; active means well fitted inhibition curve with a large enough effect; inconclusive means small, poorly fitted or top-dose-only effect; inactive means no such curve, though single readings can be large or run the other way;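 further: the protocol describes HADH2 (HSD17B10) and not the HSD17B4 of the title; nearly all actives have a fitted effect of over 70% in size; most hits overshoot -100% by far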
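His-tagged E. coli-expressed HADH2 at 20 nM in 100 mM Tris-HCl pH 9.0 with 0.01 % Tween-20, preincubated 15 min with compound at room temperature. Reaction with 1 mM NAD+ and 90 uM beta-hydroxybutyryl coenzyme A; NADH fluorescence (360/450 nm) read kinetically over 4 min, last minus first point.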
* = called active by the depositor; ? = inconclusive; [ ] = another dose, or the depositor's remark. On the % scale 0 is the no-effect control and ±100 the full control effect; potency means the concentration at half of the fitted maximal effect. Not all compounds are listed; count on the stated rates, not on these rows.

SMILES	HSD17B inhib
CCOc1cc2[nH]c(=O)n(CC3CCC(C(=O)NC(C)CC)CC3)c(=O)c2cc1OCC (stereo not drawn)	?
CCCCNc1c(C(=O)OCC)c(=O)[nH]c2ccccc12	6%
COc1ccc(OC)c(NC(=O)CCN2CCC(C)CC2)c1	9%
COc1ccc(-c2nnn(CC(=O)c3ccccc3)n2)cc1OC	0%
CSc1ccccc1C(=O)Nc1cccc(C(C)O)c1 (stereo not drawn)	13%
CC(=O)/C=C(/C)NC(Cc1c[nH]c2ccccc12)C(=O)O (stereo not drawn)	-4%
CS(=O)(=O)N(CC(=O)NCCSc1ccc(Cl)cc1)c1ccc2c(c1)OCO2	8%
Cn1nc(C(=O)NCc2ccccn2)c2ccccc2c1=O	9%
COc1ccccc1N(CN1CCCC1=O)C(=O)c1c(F)cccc1F	-1%
CCCCC(CC)CNC(=O)c1ccc2c(c1)OCO2 (stereo not drawn)	-4%
COC(=O)[C@@]1(Cc2ccc(F)cc2)[C@H]2c3cc(C(=O)N(C)C)n(Cc4ccc(C)c(F)c4F)c3C[C@H]2CN1C(=O)c1ccccc1	21%
Nc1nc(SCC(=O)C23CC4CC(CC(C4)C2)C3)n[nH]1	-3%
O=C(CN1CCCC1=O)NC1(C(F)(F)F)NC(=O)N(Cc2ccccc2)C1=O (stereo not drawn)	4%
Cc1ccc(-n2nnnc2SCC(=O)N2CCc3ccccc3C2)c(C)c1	-5%
O=c1c(-c2ccc(F)c(F)c2)nc2cncnc2n1Cc1ccccc1	-1%
CCn1c2ccccc2c2cc(NC(=O)c3ccco3)ccc21	-21%
O=C(Nc1ccc2c(c1)OCO2)C1Cc2ccccc2CN1S(=O)(=O)c1cccs1 (stereo not drawn)	?
O=C(CCCCn1c(=O)c2ccccc2n(CC(=O)Nc2ccc(F)cc2)c1=O)NCc1ccco1	-1%
Cc1nn(C)c(C)c1S(=O)(=O)N(CC(=O)NCCN1CCOCC1)c1ccc(C(C)C)cc1	6%
O=C(Cc1ccccc1)Nc1ccc(NC(=O)C2CC2)nc1	9%
CC(=O)C(C(C)=O)C(NC(=O)c1cccnc1)(C(F)(F)F)C(F)(F)F	7%
O=C(Cn1cnc2ccccc21)Nc1cc(C(F)(F)F)ccc1N1CCOCC1	9%
c1ccc2c(c1)Cc1cc(CN3CCOCC3)ccc1-2	-5%
CNC(=O)CN(C1CCCCC1)S(=O)(=O)c1ccc(OC)c(Cl)c1	7%
C=CCn1c(=O)c2ccccc2n2c(SCc3nc(N)nc(Nc4ccccc4C)n3)nnc12	3%
CC(=O)Nc1c(I)cc(I)c(C(=O)O)c1I	-2%
COC(=O)c1cc(OC)c(=O)c2c(OC)c(OC)ccc2c1	-1%
C=CCN(C(=O)CNC(=O)c1ccco1)C(C(=O)NC1CCCCC1)c1ccc(F)cc1 (stereo not drawn)	-14%
CCCCNC(=O)CCCn1c(=O)c2ccccc2n(CC(=O)NCCC2=CCCCC2)c1=O	4%
CC(C)Sc1nc2c(c(=O)[nH]c(=O)n2C)n1C	7%

A few values from the entries so far:
CNC(=O)CN(C1CCCCC1)S(=O)(=O)c1ccc(OC)c(Cl)c1 @ HSD17B inhib = 7%
CC(=O)Nc1c(I)cc(I)c(C(=O)O)c1I @ HSD17B inhib = -2%
CC(=O)C(C(C)=O)C(NC(=O)c1cccnc1)(C(F)(F)F)C(F)(F)F @ HSD17B inhib = 7%

Additional results follow.
SMILES	HSD17B inhib
CCn1ccnc1C(O)c1cccc(OC)c1OC (stereo not drawn)	-3%
C[C@@H]1C(=O)N(C)C(=O)c2nc[nH]c21	3%
CCCn1c(=N)n(CC(O)c2ccco2)c2ccccc21 (stereo not drawn)	-13%
COCCCNC(=O)c1ccc2c(c1)ncn2-c1ccccc1OC	-20%
COc1ccccc1NC(=O)CCN1CCN(CCC(=O)Nc2ccccc2OC)CC1	10%
Cn1c(=O)c2c(ncn2CC(=O)N2CCN(c3ccccc3)CC2)n(C)c1=O	0%
CCc1nc(SCC(=O)N2CCC(C)CC2)c2c(=O)n(C)c(=O)n(C)c2n1	-13%
CN1C(=S)SC(C)(NO)C1(C)C (stereo not drawn)	-5%
CCOc1ccc(/C(O)=C2\C(=O)C(=O)N(CCN(C)C)C2c2cccc(OC)c2OC)cc1Cl (stereo not drawn)	-5%
O=C(Cn1cnc2c(cnn2-c2ccc(F)cc2)c1=O)N1CCN(c2ccccc2)CC1	4%
O=C1NCCCc2nonc21	11%
CSCCC(NC(=O)c1ccco1)C(=O)OCC(=O)Nc1sccc1C#N (stereo not drawn)	20µM*
Cc1cc(C)n2nc(C(=O)N3CCOCC3)nc2n1	3%
Nc1nnnn1/N=C/C=C/c1ccccc1	1%
COCCn1c(C)cc(C(=O)CSc2ncnc3sc4c(c23)CCC4)c1C	-18%
Cc1ccc(CNC(=O)C2CC(=O)N(C3CCCCCCC3)C2)cc1 (stereo not drawn)	7%
CCOc1ccccc1C1CC(=O)Nc2cc(OC)c(OC)c(OC)c21 (stereo not drawn)	-1%
COc1ccccc1Oc1cc(C#N)c(C#N)cc1-n1nnc2ccccc21	?
CCOC(=O)C1=C(C)OC(N)=C(C#N)C1c1ccoc1 (stereo not drawn)	-2%
COC(=O)CN(c1ccc(F)cc1)S(=O)(=O)c1ccc2c(c1)OCCO2	2%

Molecules above containing a cyano group, in the order listed:
SMILES	HSD17B inhib
CSCCC(NC(=O)c1ccco1)C(=O)OCC(=O)Nc1sccc1C#N (stereo not drawn)	20µM*
COc1ccccc1Oc1cc(C#N)c(C#N)cc1-n1nnc2ccccc21	?
CCOC(=O)C1=C(C)OC(N)=C(C#N)C1c1ccoc1 (stereo not drawn)	-2%

New compounds follow:
SMILES	HSD17B inhib
COc1ccc(NC(=O)C(Cc2ccccc2)NC(=O)c2ccco2)cc1OC (stereo not drawn)	3%
CCOC(=O)C1CCCN(C(=O)c2sc3nc(-c4ccc(F)cc4)cn3c2C)C1 (stereo not drawn)	1%
Cn1c(N)c(C(=O)COC(=O)c2cc(-c3ccco3)nc3ccccc23)c(=O)n(Cc2ccccc2)c1=O	10µM*
Cc1onc(-c2ccccc2)c1C(=O)Nc1nnc(N2CCCCCC2)s1	-6%
CCCS(=O)(=O)O	0%[11.4 µM]
CC(=O)N1CCc2cc(S(=O)(=O)NCCC(=O)NCCc3ccc(C)cc3)ccc21	13%
Cc1c(N(C)C(=O)C2CCCN2S(=O)(=O)c2ccccc2)c(=O)n(-c2ccccc2)n1C (stereo not drawn)	12%
CCCCn1c(SCC(=O)N(CC)C2CCS(=O)(=O)C2)nnc1C(CC)N(C)C (stereo not drawn)	3%
Cc1noc(C)c1COC(=O)c1ccc(S(=O)(=O)NCc2ccco2)cc1	-19%
COC(=O)c1ccccc1NC(=O)CN(C)S(=O)(=O)c1cc(C)ccc1OC	25µM*
CCOC(=O)Nc1ccc2c(c1)N(C(=O)CN(CC)CC)c1ccccc1C=C2	-2%
COc1ccc(CCNC(=O)CS(=O)Cc2nc(-c3cccs3)oc2C)cc1OC (stereo not drawn)	-11%
CCOc1ccc(-n2c(SCC)nc3c(c2=O)SCC3)cc1	4%
CC1(C)NC(=O)N(CCOCCSc2ccccc2)C1=O	8%
Cc1cc(=O)[nH]c(SCC(N)=O)c1C#N	2%
CC(=O)N1c2ccccc2N(Cc2ccc(C)cc2C)C(=O)C1(C)C	4%
O=C(O)CSc1nnc(-c2cc3ccccc3o2)n1-c1ccccc1	?
Cc1cc(Nc2ccc(N=Nc3ccc(O)c4ncccc34)cc2)nc(C)n1	-12%[11.4 µM]
CSc1ccccc1C(=O)NCCSC(C)(C)C	8%
N=c1n(Cc2ccc(Cl)cc2)c2ccccc2n1CC(O)c1ccco1 (stereo not drawn)	?

Rewritten with each value named: entries from further up.
CCOC(=O)Nc1ccc2c(c1)N(C(=O)CN(CC)CC)c1ccccc1C=C2
  HSD17B inhib: -2%

CC(=O)N1c2ccccc2N(Cc2ccc(C)cc2C)C(=O)C1(C)C
  HSD17B inhib: 4%

O=C(O)CSc1nnc(-c2cc3ccccc3o2)n1-c1ccccc1
  HSD17B inhib: ?

N=c1n(Cc2ccc(Cl)cc2)c2ccccc2n1CC(O)c1ccco1 (stereo not drawn)
  HSD17B inhib: ?

(next part)
SMILES	HSD17B inhib
Oc1ccc2ccccc2c1Cc1c(O)ccc2ccccc12	-21%[11.4 µM]
CC(C)c1c(O)ccc2c1CCC1[C@@](C)(C=O)CCC[C@@]21C (stereo partly drawn)	-4%
COc1ccccc1C(=O)N1CCNC(=O)C1CC(=O)Nc1ccc(Cl)cc1 (stereo not drawn)	11%
O=C(Nc1ccc(O)cc1C(=O)O)c1ccc2c(c1)C(=O)N(Cc1ccco1)C2=O	-11%
O=C(Nc1cccc2ncccc12)c1ccc2c(c1)OCCO2	-7%
CCCNC(=O)Nc1cc(OCC)c(N2CCOCC2)cc1OCC	-1%
CC1(C)CC(=O)c2sc(N)nc2C1	-1%
CCOC(=O)C1CCN(S(=O)(=O)c2nc3nc(C)cc(C)n3n2)CC1	3%
COCCNC(=O)C(c1cccs1)N(C(=O)Cn1nnc2ccccc21)c1cccc(C)c1 (stereo not drawn)	6%
CC(NC(=O)CSc1n[nH]c(=O)n1C1CC1)C12CC3CC(CC(C3)C1)C2 (stereo not drawn)	3%
CCCCN1C(=O)C(O)(CC(=O)c2ccco2)c2cc(Br)ccc21 (stereo not drawn)	0%
CCOC(=O)c1ccccc1NC(=O)COC(=O)C1=COCCO1	-4%
COCCn1c(=O)c(C)nc2cnc(N3CCN(C)CC3)nc21	32µM*
CCOC(=O)C1CCCn2c1nc1sc3c(c1c2=O)CCCC3 (stereo not drawn)	-4%
CCn1cc(C(=O)NCC2CCCO2)c(=O)c2cc(S(=O)(=O)N(C)C3CCCCC3)ccc21 (stereo not drawn)	-8%
COc1ccccc1-n1cnnc1SCC(=O)c1ccc[nH]1	-6%
CCOc1nc(-c2ccccc2)ccc1-c1noc(-c2ccc(OC)c(OC)c2)n1	?
CCOC(=O)Cc1ccc(NS(=O)(=O)c2ccc(SC)cc2)cc1	-13%
COc1ccc(CN(C(=O)CN2C(=O)C(C)Oc3ccccc32)C2CCCC2)c(OC)c1 (stereo not drawn)	-7%
Clc1ccccc1-c1cncnc1NCCN1CCOCC1	2%
O=C(O)CCn1c(=O)[nH]c2ccccc2c1=O	-28%
CCCCN(C)CCCNC(=O)CC1Oc2ccccc2NC1=O (stereo not drawn)	-8%
Cc1cc(Cl)c(S(=O)(=O)NCc2cccnc2)cc1OCC(N)=O	0%
Cc1ccc(C)c(N(CC(=O)NCCSCc2ccco2)S(C)(=O)=O)c1	?
CN(C)CCOC(c1ccc(Cl)cc1)c1ccccn1 (stereo not drawn)	-4%
CS(=O)(=O)N(CC(=O)NCC1CCCO1)Cc1ccc(Cl)cc1 (stereo not drawn)	3%
O=C(CCCOc1ccccc1)Nc1nncs1	2%
Cc1c(N(C)C(=O)c2ccccc2F)c(=O)n(-c2ccccc2)n1C	13%
Cc1cc(=O)c2c(O)c(O)ccc2o1	16µM*
CC(C)NC(=O)N1CCC2(CC1)CCN(C(=O)c1ccco1)CC2	3%

Grouped by structure: those above with a COOH group
SMILES	HSD17B inhib
CC(=O)/C=C(/C)NC(Cc1c[nH]c2ccccc12)C(=O)O (stereo not drawn)	-4%
CC(=O)Nc1c(I)cc(I)c(C(=O)O)c1I	-2%
O=C(O)CSc1nnc(-c2cc3ccccc3o2)n1-c1ccccc1	?
O=C(Nc1ccc(O)cc1C(=O)O)c1ccc2c(c1)C(=O)N(Cc1ccco1)C2=O	-11%
O=C(O)CCn1c(=O)[nH]c2ccccc2c1=O	-28%

Next part
SMILES	HSD17B inhib
CN1CCC2(CC1)CCN(C(=O)c1cc(C(F)(F)F)cc(C(F)(F)F)c1)CC2	2%
COc1ccc(C(CNC(=O)c2ccc3c(c2)C(=O)N(CCC(C)C)C3=O)N2CCOCC2)cc1 (stereo not drawn)	9%
O=C(NCc1ccccn1)C1CCN(S(=O)(=O)c2ccccc2)CC1	8%
CCn1cc(C(=O)NCc2ccco2)c(=O)c2cc(S(=O)(=O)N3CCC(C)CC3)ccc21	-23%
COc1ccc(CNC(=O)COC(=O)c2c[nH]c(=O)[nH]c2=O)cc1OC	13%
Cc1cc(C)nc(N2CCC(C(=O)NCCc3ccc(F)cc3)CC2)n1	-18%
CCC1CCCCN1C(=O)CSc1nnc(-c2ccc(Cl)s2)o1 (stereo not drawn)	?
CC1CCN(CC(O)COc2ccc(F)cc2)CC1 (stereo not drawn)	-14%
Cc1cc(N2CCN(C(=O)c3ccco3)CC2)n2nc(-c3cccc(F)c3)cc2n1	?
CCc1ccccc1NC(=O)c1cnc2scc(C)n2c1=O	?
CCC(C)NC(=O)c1cc(OC)c(OC)c(OC)c1 (stereo not drawn)	5%
O=C(CCCN1CCC(c2ccccc2)C1)c1ccc2c(c1)OCCO2 (stereo not drawn)	-4%
Cc1ccc(-c2noc(CCC(=O)NCCN3CCN(Cc4ccccc4)CC3)n2)cc1	2%
O=C(CSc1nc2ccccc2c(=O)n1-c1ccc(Cl)cc1)c1ccco1	1%
O=C(c1ccc(COCC(F)(F)F)o1)N1CCCCCC1	10%
COC(=O)[C@@H]1C[C@H]2CC[C@H](O)C[C@H]2N1Cc1ccc(-c2ccccc2)cc1	8%
CCOc1ccc(NC(=O)Cn2nnc(C(=O)NCc3ccccc3OC)c2N)cc1	2%
Cc1ccc(C)c(-n2c(CNC(=O)c3ccco3)nnc2SCC(=O)N2CCc3ccccc32)c1	5%
CCn1c(=O)c2c(nc3n2CC(C)CN3CCc2ccccc2)n(C)c1=O (stereo not drawn)	3%
